# CBX7 AlphaScr: CBX7 chromodomain binding inhibitors, primary screen, biochemical, AlphaScreen; Chromobox protein homolog 7 (Homo sapiens), O95931; AlphaScreen His6-CBX7 / biotin-H3K27me3 peptide binding; stronger effect = lower value; normalised signal (fraction of DMSO) (no concentration beside the values); hit rate 1.1% among 66,000; in the data active = normalised signal below about 0.5;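 also: 100 nL library stock added to about 20 µL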
# Target sequence (O95931 whole entry, looked up): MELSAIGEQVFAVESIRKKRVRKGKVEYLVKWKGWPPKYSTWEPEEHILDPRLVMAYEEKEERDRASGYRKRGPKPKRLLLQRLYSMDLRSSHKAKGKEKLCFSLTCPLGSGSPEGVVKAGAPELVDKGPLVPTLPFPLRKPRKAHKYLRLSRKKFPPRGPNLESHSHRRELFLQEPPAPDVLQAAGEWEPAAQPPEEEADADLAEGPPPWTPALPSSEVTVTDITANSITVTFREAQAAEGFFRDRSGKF
# CBX7 AlphaScr z-score: also measured in CBX7 AlphaScr; calls as there; z-score; measured here: z-score of CBX7 signal; some inactives read as strong as hits; reference of the scale not given here;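 same signal on another scale; lower means less binding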
# An asterisk follows results filed as active.
mol	CBX7 AlphaScr	CBX7 AlphaScr z-score
C=CCn1c(=O)c(C(=O)Nc2ccccc2)c(O)c2ccccc21	1	0.72
COc1ccc(CCNC(=O)c2cn(C)c(=O)c3c2c2ccccc2n3C)cc1OC	1.1	1.2
Cc1ccc(Nc2cc(C(=O)NC(C)CCc3ccccc3)c3ccccc3n2)c(C)c1 (configuration not stated)	0.82	-5.1
Cc1nc2c(C(=O)N3CCC4(CC3)OCCO4)c[nH]n2c(=O)c1Cc1ccccc1Cl	1	0.076
Cc1ccc(-c2nnc(Nc3ccc(C(N)=O)cc3)c3ccccc23)cc1S(=O)(=O)N1CCCCC1	1.1	0.15
CC(NC(=O)Cn1ncc2ccsc2c1=O)C12CC3CC(CC(C3)C1)C2 (configuration not stated)	1	-0.038
CCN(CC)C1=Nc2cc(C(=O)O)ccc2Sc2ccccc21	1.1	2.7
O=C(Nc1ccc(F)c(F)c1)C1CCN(S(=O)(=O)c2cccnc2)CC1	1	0.99
CCCCOc1ccc(C(=O)N(Cc2ccccc2)C2CCS(=O)(=O)C2)cc1 (configuration not stated)	0.93	-0.067
O=C(Nc1ccccc1F)C1(S(=O)(=O)c2ccc(Cl)cc2)CC1	1.1	1.5
CCN(CC)CCNC(=O)c1cc(Nc2ccc(C(C)C)cc2)nc2ccccc12	1.3	0.3
Cc1ccc(NC(=O)c2cc3nc(-c4ccc(C)cc4)cc(C(F)(F)F)n3n2)cc1	0.93	-0.94
CCOC(=O)c1cnc2ccc(C)cc2c1NCCN1CCOCC1	1.2	1.9
Cc1ccc(-n2nc3c(c2NC(=O)c2ccc(OC(C)C)cc2)CSC3)c(C)c1	1.1	1.4
CCCC(=O)NCc1cc(-c2nn(C)c(=O)c3ccccc23)ccc1C	1.1	1.6

# Sorted by value in CBX7 AlphaScr z-score (ascending): some entries from above
SMILES | CBX7 AlphaScr z-score
Cc1ccc(Nc2cc(C(=O)NC(C)CCc3ccccc3)c3ccccc3n2)c(C)c1 (configuration not stated) | -5.1
CC(NC(=O)Cn1ncc2ccsc2c1=O)C12CC3CC(CC(C3)C1)C2 (configuration not stated) | -0.038
Cc1nc2c(C(=O)N3CCC4(CC3)OCCO4)c[nH]n2c(=O)c1Cc1ccccc1Cl | 0.076
O=C(Nc1ccc(F)c(F)c1)C1CCN(S(=O)(=O)c2cccnc2)CC1 | 0.99
Cc1ccc(-n2nc3c(c2NC(=O)c2ccc(OC(C)C)cc2)CSC3)c(C)c1 | 1.4
CCN(CC)C1=Nc2cc(C(=O)O)ccc2Sc2ccccc21 | 2.7

# Carrying on.
mol	CBX7 AlphaScr	CBX7 AlphaScr z-score
Cc1c(C(=O)NC(C)c2ccccc2)oc2ccc(S(=O)(=O)N3CCCC3)cc12 (configuration not stated)	1	0.86
C=C(C)c1cccc(C(C)(C)NC(=O)NCc2cccnc2)c1	1	0.067
COc1ccc(OC)c(N(CC(=O)Nc2ccc(C)cc2)S(=O)(=O)c2ccccc2)c1	1.1	0.69
Cc1cc(N2CCN(C)CC2)nc2ccc(NC(=O)CCC(=O)NCCc3ccc(Cl)cc3)cc12	1.1	2.1
Cc1cc(NC(=O)c2ccccc2F)ccc1NC(=O)c1ccccc1	0.93	-0.51
Cc1ccc(CCNC(=O)CS(=O)(=O)Cc2nc(-c3ccc(C)cc3)oc2C)cc1	0.89	-0.23
COc1ccccc1CNC(=O)CC1Oc2ccccc2NC1=O (configuration not stated)	1	0.71
CCCc1c(C)nc(Nc2nc(C)c3cc(C)ccc3n2)[nH]c1=O	0.83	-2
COc1ccc(OCCSc2nc3ccccc3n2CCO)cc1	0.96	-0.85
COc1ccc(S(=O)(=O)N(CC(=O)N2CCCCCC2)c2ccc(C)cc2)cc1	0.99	-0.28
CC(C)OCCCNC(=O)Cn1nc(Cc2cccnc2)c2ccccc2c1=O	1	0.0081
CC(=O)Nc1cc2c(cc1C(=O)c1ccc(Br)cc1)OCCO2	1	-0.044
O=C(Nc1c(C(=O)NCc2ccccc2)cnn1-c1ccccc1)c1ccccc1F	0.87	-1.4
CCN(C(=O)Cc1c(C(=O)O)[nH]c2ccc(Cl)cc12)c1cc(C)ccc1C	1	0.32
O=C(CN1C(=O)COc2ccc(S(=O)(=O)N3CCCC3)cc21)NCCN1CCCC1	1	1.3

# Additional records.
mol	CBX7 AlphaScr	CBX7 AlphaScr z-score
COc1ccc2cc(CCNC(=O)c3ccc(Cl)cc3Cl)c(=O)[nH]c2c1	0.96	-0.9
CC(C)c1ccc(CN2CC(C(=O)Nc3nc4ccccc4s3)CC2=O)cc1 (configuration not stated)	0.94	-2.5
O=C(Nc1ccc2oc(-c3ccc(F)cc3)nc2c1)c1ccccc1F	1	0.8
COc1ccc(C(=O)Cc2cc3cc4ccccc4cc3oc2=O)c(OC)c1	0.9	-1.5
O=C(NCc1cccc(Cl)c1)c1noc2c1CCCC2	1.1	2
Cc1cc(C)c(NC2=NS(=O)(=O)c3ccccc32)c(Cl)c1	0.98	-0.73
CCN(CC)CCCNC(=O)c1cc(Sc2nnc(C)s2)nc2ccccc12	1.1	2.4
CCCCOCCCNC(=O)c1c(-c2c(Cl)cccc2Cl)noc1C	1	0.02
O=C(Nc1ccccc1)c1sc(-c2ccccc2)nc1-c1ccccc1	1.1	2.9
Cc1ccccc1OCCn1c(C2CC(=O)N(c3cccc(C)c3C)C2)nc2ccccc21 (configuration not stated)	0.89	-0.69
COc1cc2c(cc1OC)-c1nnc(-c3cccnc3)n1C1(CCCC1)C2	1	1.8
CC(=O)N1CCc2cc(S(=O)(=O)NCCC(=O)Nc3ccc(F)c(Cl)c3)ccc21	1	-0.11
O=C1CN(C(=O)c2cccc(F)c2)C(c2ccccc2)c2cc(F)ccc2N1 (configuration not stated)	1	0.21
Cc1noc(C(=O)N2CCN(c3ccc(F)cc3)CC2)c1Cl	1	1.7
Cc1ccc2c(c1)c(=O)c(S(=O)(=O)c1ccc(Cl)cc1)cn2CC(=O)Nc1ccccc1C	0.87	-2.1

# The results go on:
mol	CBX7 AlphaScr	CBX7 AlphaScr z-score
Cc1ccc(CNC(=O)C2CCCN(S(C)(=O)=O)C2)cc1 (configuration not stated)	1.1	1.3
CC1(C(=O)NC2CCCCCCC2)CCC(=O)N1Cc1cccnc1 (configuration not stated)	0.52	-17
CCOc1cc2c(cc1OCC)C1C(C(=O)Nc3ccccc3CC)c3ccccc3C(=O)N1CC2 (configuration not stated)	1	0.099
CCc1nn(CC(=O)Nc2nnc(N3CCCCCC3)s2)c2ccccc12	0.9	-1.6
Cc1c(C(=O)NCc2ccc(F)cc2)sc2ncn(Cc3cccc(F)c3)c(=O)c12	1	0.072
O=C(CSc1nnc(-c2ccccc2)o1)Nc1ccccc1F	1.1	1.7
Clc1ccc(-c2nc3cnccn3c2Nc2ccccc2)cc1	1.1	0.99
COc1ccc(CCNC(=O)C(=O)Nc2cccc(Br)c2)cc1OC	1.1	0.81
COc1ccc(Cl)cc1NC(=O)c1c(NCc2cccn2C)sc2c1CCCC2	0.94	-1.6
Cc1c(NC(=O)c2ccc(C#N)cc2F)cccc1-c1nc2ncccc2o1	1.1	2.7
O=C(Nc1ccc2c(c1)OCO2)c1cnn2c1NC(c1ccco1)CC2C(F)(F)F (configuration not stated)	1.1	1.1
Cc1c(C(=O)Nc2c(F)cccc2F)sc2ncn(CC(=O)N3CCCCC3C)c(=O)c12 (configuration not stated)	1.1	2.2
Cc1ccc(Nc2cc(C(=O)NCCN3CCOCC3)c3ccccc3n2)c(C)c1	1.1	1.9
NS(=O)(=O)c1ccc(CCNC(=O)Cn2ncc3c2-c2ccccc2OC3)cc1	1.1	0.42
Cc1[nH]n(-c2ccccc2)c(=O)c1C1Nc2ccccc2C(=O)N1CCc1ccccc1 (configuration not stated)	0.92	-0.94

# Later entries
mol	CBX7 AlphaScr	CBX7 AlphaScr z-score
Cc1ccc(Cn2ccc(NC(=O)c3cc(C4CC4)on3)n2)cc1	1	0.81
O=C(c1ccc2c(c1)N(Cc1ccccc1F)C(=O)c1ccccc1S2=O)N1CCCCCC1 (configuration not stated)	0.95	-0.93
COc1ccccc1NC(=O)c1c(-c2c(F)cccc2Cl)noc1C	1.1	0.7
CCOC(=O)N1CCN(c2cc(=O)n(-c3ccccc3Cl)c(=O)[nH]2)CC1	0.93	-1.4
Cc1ccc(NC(=O)c2cnc3ccccn3c2=O)c(C)c1	1	0.27
O=C(c1ccc2c(c1)N(Cc1ccc(Cl)cc1)C(=O)c1ccccc1S2=O)N1CCCCC1 (configuration not stated)	0.98	-0.32
COc1ccc(NC(=O)C2CCN(S(=O)(=O)c3cccc4nonc34)CC2)cc1Cl	0.97	-0.04
Cc1ccc2c(c1)NC(=O)C(CC(=O)Nc1ccc3c(c1)OCCO3)O2 (configuration not stated)	1	0.82
CCCC1c2ccc(C)n2CCN1C(=O)Nc1ccc(F)cc1 (configuration not stated)	0.99	-0.34
Cc1ccc(OC(C)c2nc(-c3nonc3N)no2)cc1C (configuration not stated)	1.1	2.4
CCOC(=O)c1cnc2ccccc2c1NCc1ccccc1	1	0.71
COc1ccc(-n2nc3c(c2NC(=O)c2ccc(OC(C)C)cc2)CS(=O)(=O)C3)cc1	0.89	-1.3
Cc1ccc(CN2CC34C=CC(O3)C(C(=O)NC3CC3)C4C2=O)cc1 (configuration not stated)	1	0.6
CC(C)c1ccc2oc(-c3ccc(NC(=O)c4ccc(F)cc4)cc3)nc2c1	1.1	1.4
Cc1ccc(-c2nnc(OCc3nc4ccccc4n3C)c3ccccc23)cc1	1	1.3

# New compounds follow
mol	CBX7 AlphaScr	CBX7 AlphaScr z-score
Cc1cccn2cc(-c3cccc(NC(=O)c4ccccc4Cl)c3)nc12	0.92	-0.92
COc1ccc(NC(=O)CC(C)Cc2ccc(Cl)cc2)cc1 (configuration not stated)	0.88	-0.5
CCN(CCNC(=O)CN1C(=O)CCSc2ccccc21)c1ccccc1	0.96	-2
COc1ccc(C2C(C(=O)NCc3ccc(F)cc3)c3cc(OC)c(OC)cc3C(=O)N2C)cc1 (configuration not stated)	1.3	2.5
COC(=O)c1c(C)n(C)c2ccc(O)cc12	0.98	-0.42
CCCN1CCN(C(=O)CN2C(=O)CSc3ccc(S(=O)(=O)N(CC)CC)cc32)CC1	1	1.1
O=C1CN(C(=O)COc2ccccc2)C(c2ccc(F)cc2)c2cc(Br)ccc2N1 (configuration not stated)	0.76	-4.4
COc1ccc(N2CCN(c3oc(COc4ccc(F)cc4)nc3C#N)CC2)cc1	0.55	-13
Cc1cccc(C(=O)Nc2c(C(=O)N3CCCCCC3)cnn2-c2ccccc2)c1	1	0.42
O=C(C1CC1)N1CCc2cc(S(=O)(=O)N3CCCc4ccccc43)ccc21	0.65	-1.4
O=C(C1CCN(c2nnc(-n3cccc3)s2)CC1)N1CCc2ccccc2C1	1	1.6
Cc1nnn(C23CC4CC(CC(CC(=O)Nc5ccc(C)c(C)c5)(C4)C2)C3)n1	0.98	-0.25
CCOc1ccc(N(CC)S(=O)(=O)c2ccc3c(c2)CCN3C(=O)CC)cc1	0.95	-0.99
Cn1nc(-c2ccc(OCC(=O)Nc3ccccc3)cc2)c2ccccc2c1=O	1	1.3
Cc1ccc(Nc2ncc(C(=O)NCC3CCCO3)c3ccccc23)cc1Cl (configuration not stated)	1.1	3.9

# Shown with two lines to a compound: six of the compounds above.
# Second line of a record: CBX7 AlphaScr, CBX7 AlphaScr z-score
COc1ccc(N2CCN(c3oc(COc4ccc(F)cc4)nc3C#N)CC2)cc1
→ 0.55, -13
Cc1cccc(C(=O)Nc2c(C(=O)N3CCCCCC3)cnn2-c2ccccc2)c1
→ 1, 0.42
O=C(C1CC1)N1CCc2cc(S(=O)(=O)N3CCCc4ccccc43)ccc21
→ 0.65, -1.4
O=C(C1CCN(c2nnc(-n3cccc3)s2)CC1)N1CCc2ccccc2C1
→ 1, 1.6
Cc1nnn(C23CC4CC(CC(CC(=O)Nc5ccc(C)c(C)c5)(C4)C2)C3)n1
→ 0.98, -0.25
CCOc1ccc(N(CC)S(=O)(=O)c2ccc3c(c2)CCN3C(=O)CC)cc1
→ 0.95, -0.99

# Continuation.
mol	CBX7 AlphaScr	CBX7 AlphaScr z-score
CCN(CC)CC(=O)Nc1c(C)c2ccccc2n1-c1ccccc1	0.93	-0.47
COc1ccc(OC)c(-n2cnc3cc(C(=O)NCCc4ccccc4)ccc32)c1	0.95	-0.58
CN1CC(=O)Nc2cc(C(=O)NCC3CCCO3)ccc21 (configuration not stated)	1.1	1.2
CC(C)NC(=O)Cn1ncc2ccsc2c1=O	1	1.2
CCCCOc1ccc(C(=O)Nc2nc(-c3ccc(OC)cc3)cs2)cc1	1	1
CCn1cc(C(=O)NCCCOC(C)C)c2cc(OC)c(OC)cc2c1=O	1.2	2
CC(O)c1nc2ccccc2n1Cc1ccc(F)cc1 (configuration not stated)	1	0.092
Cc1ccc2[nH]c3c(c2c1)CCCC3NCCCO (configuration not stated)	1	0.15
COCCNC(=O)c1csc2c1CCC(C)C2 (configuration not stated)	1.1	3
CCOc1ccc(S(=O)(=O)NCCc2c(C)[nH]c3c(Cl)cccc23)c2ccccc12	0.51	-1.4
O=C(Nc1ccc(F)cc1F)c1nn2c(C(F)(F)F)cc(-c3ccco3)nc2c1Cl	0.99	-0.077
Fc1cccc(NCc2cn3cccnc3n2)c1	0.94	-0.7
Cc1ccccc1Cn1c(C2CC(=O)N(c3ccccc3)C2)nc2ccccc21 (configuration not stated)	0.6	-7.5
CCCc1cc(C(=O)Cc2cc3ccccc3o2)c(O)cc1O	0.91	-0.15
CCCCSc1oc(-c2cccs2)nc1S(=O)(=O)c1ccc(Br)cc1	0.98	-0.037

# (cont.)
mol	CBX7 AlphaScr	CBX7 AlphaScr z-score
O=C(NCC1CCCO1)c1c[nH]c2ccc(S(=O)(=O)Nc3ccccc3F)cc2c1=O (configuration not stated)	1.1	1.3
CCCNC(=O)c1c(CC)c(-c2ccccc2)nc2ccccc12	0.92	-0.32
O=C(c1ccc(Cl)c(Cl)c1)N1CCc2c([nH]c3ccccc23)C1c1ccc(Cl)cc1 (configuration not stated)	0.77	-4.2
CCOC(=O)c1cc(C(=O)NCc2ccccc2)c(=O)[nH]c1C	1	0.14
O=C(Cn1nc(Cc2ccncc2)c2ccccc2c1=O)N1CCN(Cc2ccccc2)CC1	0.94	-1.2

# High-throughput results: PubChem, several laboratories

# This is a subset; the hit share may differ from the screen's.
